Mtb hypoxia rep – reduces hypoxia-regulated biosensor signal in M. tuberculosis | M. tuberculosis hypoxia-regulated fluorescent reporter, fluorescence | fluorescence inhibition, % (no concentration beside the values) | actives 0.1% (n = 300,000) | AID 1159583;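 active = 35 to 45% if threefold the growth effect, above 45% if 1.5-fold the growth effect; inactive = the rest, general growth blockers included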;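 note: wells of about 50 µL received 100 nL stock; 0% = vehicle wells and 100% = reference inhibitor wells; whole bacteria with a GFP reporter of the hypoxia response; strong numbers were not always called active; many hits fall short of the cut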
Bead autofluor – counter-screen for toxin protease inhibitors: compound fluorescence. actives 3.1% (n = 360,000). AID 624483. fluorescence intensity (test concentration not listed). compound autofluorescence counterscreen, microsphere flow cytometry; stronger effect = higher value;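 active = at least 3 SD above the mean of all compounds, about 16000 in these data; inconclusive = too few beads counted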;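 note: 100 nL of 1 mM stock went into each well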
Sa ugtP lethal – growth inhibition of S. aureus ugtP deletion strain; growth inhibition, % (test concentration not listed); S. aureus RN4220 ugtP deletion, OD600 growth, 16 h; some inactives read as strong as hits; actives 0.54% (n = 330,000);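 active = z-score under -3 and OD600 up to 0.15 on both plates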;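 note: plate controls were untreated wells for no effect and antibiotic for full effect; wells of about 80 µL received 100 nL stock; the first replicate is given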
Sa RN4220 lethal – kills Staphylococcus aureus RN4220; inhibition, % (concentration not given with the values); AID 1259311; S. aureus RN4220 growth, OD600, 16 h; actives 0.33% (n = 330,000);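 active = z-score of -3 or lower and OD600 up to 0.18 on both plates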;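 note: plate controls were untreated cells for no effect and reference antibiotic for full effect; stock transfer was 100 nL into about 80 µL; one replicate is shown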
PrP 5UTR inh – inhibition of PrP 5' UTR reporter expression; inhibition, % (test concentration not listed); cell-based PrP 5' UTR mRNA reporter, plate reader; actives 0.35% (n = 340,000);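 active = every replicate at 50% or more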;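 note: 0 = median of the neutral control wells; tested in H4 reporter cells; numbers are from one replicate; inactives centre near -14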
BJeLR lethal – BJeLR cell viability loss | BJeLR (HRASV12) viability, CellTiter-Glo ATP luminescence, 48 h; reference of the scale not given here | inhibition, % (concentration not given with the values) | actives 0.17% (n = 300,000) | AID 1554;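 active = replicate mean above 50%; inconclusive = above 50% but judged a plate artefact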;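 note: 50 nL library stock added to about 25 µL; numbers are from one replicate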
Mtb hypoxia rep growth – also measured in Mtb hypoxia rep; calls as there; growth inhibition, %; measured here: M. tuberculosis growth (absorbance);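 0% = vehicle and 100% = reference antibiotic; read after six days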
An asterisk follows results filed as active; u = inconclusive; x = no result given; & = joins results of further samples.

SMILES	Mtb hypoxia rep	Mtb hypoxia rep growth	Bead autofluor	Sa ugtP lethal	Sa RN4220 lethal	PrP 5UTR inh	BJeLR lethal
O=C(COC(=O)c1ccco1)c1ccc(Cl)cc1	-4	-6	3098	5	3.3	-14	2
CCOCCCn1c(=NC(C)=O)c(C#N)cc2c(=O)n3ccccc3nc21	-3	-10	3019	1	3.3	-15	5
COC(=O)Cc1c(O)ccn(Cc2ccc(OC)c(OC)c2)c1=O	5	-2	3167	11	0.1	63*	0
COc1cc2c(cc1OC)C(c1ccc(OC)c(OC)c1OC)CC(=O)N2 (stereo not drawn)	14	9	x	9	3.0	9	9
CCC(C)N(C(=O)Cn1c(Cl)nc2c1c(=O)n(C)c(=O)n2C)C1CCS(=O)(=O)C1 (stereo not drawn)	1	-20	x	5	2.5	-16	12
COc1cc(C(=O)NCC(c2cccs2)N(C)C)cc(Cl)c1OC(C)C (stereo not drawn)	7	7	2026	7	2.7	-6	-2
CC(O)(CS(=O)(=O)Cc1cccc(C(F)(F)F)c1)C(=O)Nc1cccc(C(F)(F)F)c1 (stereo not drawn)	8	2	11115	-11	11	x	-5
CC(=O)c1ccc(OCC(=O)OCC(=O)Nc2sccc2C(N)=O)cc1	6	-2	3866	-1	2.2	-20	x
CNC(=O)C1CCN(S(=O)(=O)c2c(C)noc2C=Cc2ccc(C)cc2)CC1	2	-2	x	4	4.6	x	x
COc1ccccc1C(=O)NCCC(=O)Nc1cccc(S(=O)(=O)N2CCCC2)c1	1	3	8823	5	1.9	-8	x

Profiles as entered above. Order of values: Mtb hypoxia rep, Mtb hypoxia rep growth, Bead autofluor, Sa ugtP lethal, Sa RN4220 lethal, PrP 5UTR inh, BJeLR lethal
COc1cc2c(cc1OC)C(c1ccc(OC)c(OC)c1OC)CC(=O)N2 (stereo not drawn) in the list: 14, 9, x, 9, 3.0, 9, 9
COC(=O)Cc1c(O)ccn(Cc2ccc(OC)c(OC)c2)c1=O in the list: 5, -2, 3167, 11, 0.1, 63*, 0
CC(O)(CS(=O)(=O)Cc1cccc(C(F)(F)F)c1)C(=O)Nc1cccc(C(F)(F)F)c1 (stereo not drawn) in the list: 8, 2, 11115, -11, 11, x, -5

Remaining list, next part:
SMILES	Mtb hypoxia rep	Mtb hypoxia rep growth	Bead autofluor	Sa ugtP lethal	Sa RN4220 lethal	PrP 5UTR inh	BJeLR lethal
O=C(CSc1nnc2ccccn12)Nc1ncc(Cl)cc1Cl	-1	-3	10348	5	2.0	-36	-10
C=CCN(c1ccc(Br)cc1C(=O)OC)S(C)(=O)=O	5	17	3848	6	4.2	-11	x
Cn1ccc(C(=O)N/N=C/c2c[nH]c3ccccc23)n1	x	x	2950	x	x	-16	2
CC1CCCN(S(=O)(=O)c2ccc(NC(=O)C3CC(=O)N(C(C)(C)C)C3)cc2)C1 (stereo not drawn)	9	1	6100	1	6.0	-20	0
Cc1c(-c2ccc(C=NNC(=O)C(=O)Nc3ccccc3F)o2)cccc1[N+](=O)[O-]	-1	-1	x	-1	5.6	x	x
Cc1c(NC(=O)c2ccc3nsnc3c2)cccc1[N+](=O)[O-]	11	9	4184	2	3.9	-24	2
O=C(Nc1cc([N+](=O)[O-])ccc1O)c1cccc([N+](=O)[O-])c1	20	32	3559	3	1.6	-44	2
CCN(CC)S(=O)(=O)c1cccc(-c2n[nH]c(=S)n2CC(C)C)c1	18	6	3968	5	11	-16	3
COC(=O)c1ccc(C2NC(C(=O)O)CS2)cc1 (stereo not drawn)	-4	-7	9103	0	0.2	-34	-6
Cc1ccc(S(=O)(=O)N(C)CC(=O)N2CCCC2)cc1	x	x	2681	-9	-1.6	-15	-2
CCn1c(SCC(=O)Nc2cc(S(=O)(=O)N3CCOCC3)ccc2OC)nnc1-c1ccncc1	-4	-2	4634	3	4.0	-10	-2
Cc1cc(-n2c(C)cc(C(=O)CSc3ccccn3)c2C)no1	-5	-4	3340	-8	5.1	-132	x
Cc1cc(SCC(=O)N2CCCC2)nc2ccccc12	x	x	9954	1	6.0	-14	4
CCC(C)NC(=O)C1(NC(=O)Nc2ccccc2)CCCCC1 (stereo not drawn)	18	10	4353	8	3.4	-3	3
CN(C)c1ccc(C(=O)c2ccccc2C(=O)O)cc1[N+](=O)[O-]	6	6	3323	5	2.5	-39	-3
CCOc1ccc(C(=O)NNC2CC(=O)N(Cc3ccc(Cl)cc3)C2=O)cc1OC (stereo not drawn)	-9	0	3189	5	9.2	1	16
Cc1[nH]c2ccc(F)cc2c1CCN(Cc1ccco1)C(=S)NC(C)(C)C	12	5	4746	-8	5.5	8	x
CN1CCN(C(=O)CN(C2CCCCC2)S(=O)(=O)c2ccc(Br)cc2)CC1	9	9	5068	8	3.2	-7	-1
Cc1ccsc1/C=N/NC(=O)Cc1cc(=O)[nH][nH]1	x	x	3397	x	x	-5	-8
CCCNc1c(NS(=O)(=O)c2ccc(Cl)s2)c(=O)oc2ccccc12	-2	-1	4059	-6	1.4	-14	5
COc1ccc(/C=N/NC(=O)c2ccccc2O)cc1Cn1cc(Cl)cn1	x	x	2955	x	x	-7	-7
CCS(=O)CC(=O)Nc1c(-c2ccccc2)oc2ccccc2c1=O (stereo not drawn)	1	2	x	5	2.3	x	-2
CCOC(=O)C(NC(=O)CC)(Nc1sc2c(c1C(=O)OC)CCN(C)C2)C(F)(F)F (stereo not drawn)	4	3	9243	11	3.3	-7	9
CCc1ccc(Nc2nc(N3CCOCC3)nc(N3CCOCC3)n2)cc1	9	9	5676	4	1.7	-1	2
Cc1ccc(-c2cc(C(=O)NN=Cc3ccc(F)cc3)n[nH]2)o1	15	-1	x	-10	5.2	x	x
CCOc1ccc(C(O)Cn2c(=N)n(CCN3CCCCC3)c3ccccc32)cc1 (stereo not drawn)	19	9	10750	-13	0.2	-20	3
CCS(=O)(=O)c1ccc(C(=O)Nc2cccc(Cl)c2)c(Cl)c1Cl	x	x	2989	-7	4.6	-1	0
Cc1ccc(C(=O)N[C@H](C(=O)Nc2cc(Cl)cc(Cl)c2)C(C)C)cc1	11	1	8656	-3	3.1	-45	3
COCCN(CC(=O)NC1CCCCC1)C(=O)CSc1nc2ccccc2o1	3	5	4654	1	3.9	-17	-10
Cc1cc(NC(=O)CSCc2ccccc2)no1	12	2	2272	8	5.4	-24	-7
O=C(NCC1CCCN1S(=O)(=O)c1cccs1)c1ccc([N+](=O)[O-])cc1 (stereo not drawn)	-9	15	u	0	0.4	1	1
CC(C)CC1c2[nH]c3ccccc3c2CCN1CCCn1cccn1 (stereo not drawn)	4	10	4442	7	4.4	-40	2
CN(C)Cc1c(C(=O)N/N=C/c2cccs2)nnn1-c1nonc1N	x	x	2887	x	x	-5	-4
Fc1ccc(Nc2nc(-c3cccnc3)cs2)cc1	10	5	6024	-3	6.3	-101	-13
COC(=O)C1CN(C(=O)COc2ccc(C)c(C)c2)c2ccccc2O1 (stereo not drawn)	10	2	3928	2	2.3	-18	-1
Cc1ccc2nc(-c3cccc(SC4CCCCC4)c3)c(NCc3ccccc3)n2c1	12	3	2796&6434	6	5.8	-14	x
CCOC(=O)N1CCN(c2c(NCC3CCN(Cc4cccc(C)c4)CC3)c(=O)c2=O)CC1	14	5	6295	5	3.7	-10	1
CCCCN1CC(=O)N2[C@H](c3ccc(Cl)cc3)[C@@H]3C(=O)N(CC)C(=O)[C@@H]3[C@]2(C)C1=O	x	x	3572	x	x	-12	9
CC(C)OCCCN(C)C1CCN(S(=O)(=O)c2csc(C(N)=O)c2)CC1	-2	1	5300	5	1.4	-27	1
Cc1cc(N2CCOCC2)ncc1[N+](=O)[O-]	2	5	9817	-3	4.8	-19	11
CC(CCc1ccccc1)=NNC(=O)c1ccc(CN2CCOCC2)cc1	1	7	x	2	0.9	x	x
CC1CN(c2nc3ccccc3nc2C(C#N)C(=O)NC2CCCCC2)CC(C)O1 (stereo not drawn)	-10	8	x	-12	18	x	0
Cn1c(SCC(=O)Nc2sccc2C(N)=O)nc2ccccc2c1=O	7	9	3679	3	2.3	-13	x
Cc1ccc(O)c(C2=Nc3ccccc3C2(C)C)c1	4	0	5610	18	0.4	-29	-1
CCc1ccc2[nH]c(=O)c(C3C(C#N)=C(N)Oc4c3ccc3cccnc43)cc2c1 (stereo not drawn)	8	-1	13219	-1	7.3	5	-1
COc1ccccc1N1CCN(C(=O)c2cc(-c3ccc(F)cc3)on2)CC1	2	-1	2975	14	5.9	-44	0
Cc1occc1C(=O)N1CCCC(N2CCN(c3cccc(Cl)c3)CC2)C1 (stereo not drawn)	4	0	4384	9	0.2	-11	-5
CCc1noc(N)c1C(=O)Nc1ccc(F)c(Cl)c1	x	x	4816	-5	-2.0	-33	-2
Cc1cc(OCC(=O)Nc2ccncc2)ccc1Cl	11	0	3259	3	-1.7	-18	0
COc1ccc(C=NNC(=O)c2cccnc2)cc1Cn1nc([N+](=O)[O-])c(Br)c1C	-2	3	x	8	2.9	x	x

The closing two records of the section before are carried over, then new ones follow.
SMILES	Mtb hypoxia rep	Mtb hypoxia rep growth	Bead autofluor	Sa ugtP lethal	Sa RN4220 lethal	PrP 5UTR inh	BJeLR lethal
Cc1cc(OCC(=O)Nc2ccncc2)ccc1Cl	11	0	3259	3	-1.7	-18	0
COc1ccc(C=NNC(=O)c2cccnc2)cc1Cn1nc([N+](=O)[O-])c(Br)c1C	-2	3	x	8	2.9	x	x
Cc1ccc2nc(-c3ccncc3)cc(C(=O)N3CCOCC3)c2c1	x	x	6062	x	x	-16	-2
COc1ccc(-n2nnnc2Sc2ccc(S(=O)(=O)N3CCOCC3)cn2)cc1	4	7	4072	7	7.5	-26	12
CC1CCN(C(=O)C2CCCN(S(=O)(=O)c3ccc4c(c3)CC(C)N4C(=O)C3CC3)C2)CC1 (stereo not drawn)	7	11	5818	4	3.4	-63	3
Cc1ccc(C)c(NS(=O)(=O)c2ccc(OCC(=O)NCC3CCCO3)cc2)c1 (stereo not drawn)	-5	8	4001	-5	1.4	-9	-5
Cc1ccccc1SCc1noc(C(=O)NC(C)C)c1C(=O)O	19	15	3051	-2	4.8	-15	6
CCOc1ccccc1NC(=O)COc1coc(CN2CCc3ccccc32)cc1=O	3	0	u	-6	1.8	-3	-9
COc1ccc(-c2cc(C(=O)N3CCc4ccccc4C3)no2)cc1	9	10	4827	9	6.6	-27	0
O=C(CSc1ccccc1C(=O)N1CCN(c2ccc([N+](=O)[O-])cc2)CC1)N1CCCC1	6	7	6639	7	8.0	23	x
COc1ccccc1C(=O)Nc1ccnn1C1CCN(C(=O)c2ccoc2)CC1	9	-1	6012	16	2.9	-19	-13
Cc1ccc(-c2ccc(C(=O)NCCCNC(=O)c3cnccn3)o2)cc1Cl	-1	9	3668	5	0.4	0	2
CC(Oc1ccc(Cl)cc1Cl)C(=O)Nc1ncccn1 (stereo not drawn)	x	x	2911	6	-0.2	-26	0
CCOC(=O)c1[nH]c2ccccc2c1NC(=O)CC	6	11	4774	9	3.9	-1	7
O=C(Nc1ccc(F)cc1)c1ccc(C(=O)N2CCOCC2)cc1	9	7	3741	1	3.4	-14	8
COc1cc(C(=O)Nc2nc3ccc(S(C)(=O)=O)cc3s2)cc(OC)c1C	6	-5	u	12	9.6	-11	-1
N/C(=N\OC(=O)c1cc([N+](=O)[O-])ccc1Cl)c1ccccn1	x	x	6246	x	x	-22	3
Cc1ccc(C2=Nn3c(COc4ccc(Cl)cc4)nnc3SC2CC(=O)O)cc1 (stereo not drawn)	3	8	5398	3	2.5	-12	-7
Cc1ccccc1C(=O)Oc1ccccc1C(=O)N1CCOCC1	14	10	4281	0	6.5	-20	4
COc1ccc(-c2cc(=Nc3cccc(C(=O)O)c3)c3cc(C)ccc3o2)cc1	5	0	3680	-1	7.4	-41	8
CCOC(=O)N1CCN(Cc2nc(Cc3cccc(F)c3)no2)CC1	14	11	3856	2	5.6	2	-7
COc1ccc(C2C(C#N)=C(C)NC(C)=C2C#N)c(OC)c1	0	6	3954	8	3.5	-30	-1
O=C(COc1ccc(C(=O)NCc2cccnc2)cc1)Nc1cccc(C(F)(F)F)c1	0	6	6103	4	0.7	-25	0
COc1ccc(CCNC(=O)CN(c2cccc([N+](=O)[O-])c2)S(C)(=O)=O)cc1OC	2	2	3171	3	0.4	-10	2
COc1ccc(N2CCN(S(=O)(=O)c3c(C)nc4sccn4c3=O)CC2)cc1	-1	1	4231	0	-11	6	1
O=C(COc1ccc(/C=N/NS(=O)(=O)c2ccccc2)cc1)Nc1ccccc1	x	x	2045	x	x	10	-3

Bioassay records as filed in PubChem.
